Screening results (PubChem)
Polio RdRp inh: inhibitors of poliovirus RNA polymerase binding and polymerization | AID 588519 | hit rate 0.66% among 150,000 | P03300 | % elongation, % (compound at 16.7 µg/mL) | poliovirus polymerase elongation, fluorescence polarization; active compounds read low; in the data active = % elongation below about 90%; also: some results filed as inactive read as strong as hits
Target sequence (P03300 1749-2209 limits assumed): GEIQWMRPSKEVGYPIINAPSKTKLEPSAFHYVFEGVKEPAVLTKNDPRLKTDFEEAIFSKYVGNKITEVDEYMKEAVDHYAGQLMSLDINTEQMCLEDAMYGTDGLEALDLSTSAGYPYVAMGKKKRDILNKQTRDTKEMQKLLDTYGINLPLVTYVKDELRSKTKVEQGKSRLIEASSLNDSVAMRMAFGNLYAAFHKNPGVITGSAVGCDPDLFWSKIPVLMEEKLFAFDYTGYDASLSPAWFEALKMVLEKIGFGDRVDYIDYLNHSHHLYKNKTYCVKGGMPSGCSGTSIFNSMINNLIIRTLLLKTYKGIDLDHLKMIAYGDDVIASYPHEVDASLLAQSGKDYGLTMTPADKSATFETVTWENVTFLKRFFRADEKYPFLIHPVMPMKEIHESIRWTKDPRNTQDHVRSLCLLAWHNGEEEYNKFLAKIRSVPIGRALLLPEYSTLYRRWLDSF
Mtb MbtI inh: inhibitors of Mycobacterium tuberculosis siderophore enzyme MbtI; purified MbtI enzyme, fluorescence intensity read-out; inhibition, %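 (about 17 µg/mL by stock and volumes)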; hit rate 0.89% among 100,000;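 active = above 50% in both replicates, above 80% if mildly self-fluorescent; inactive = the rest, strongly fluorescent compounds included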;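 also: 0% = mean of negative and 100% = mean of positive controls; one replicate is shown; some compounds called inactive have numbers as strong as hits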
Target sequence (P9WFX0 whole entry, looked up): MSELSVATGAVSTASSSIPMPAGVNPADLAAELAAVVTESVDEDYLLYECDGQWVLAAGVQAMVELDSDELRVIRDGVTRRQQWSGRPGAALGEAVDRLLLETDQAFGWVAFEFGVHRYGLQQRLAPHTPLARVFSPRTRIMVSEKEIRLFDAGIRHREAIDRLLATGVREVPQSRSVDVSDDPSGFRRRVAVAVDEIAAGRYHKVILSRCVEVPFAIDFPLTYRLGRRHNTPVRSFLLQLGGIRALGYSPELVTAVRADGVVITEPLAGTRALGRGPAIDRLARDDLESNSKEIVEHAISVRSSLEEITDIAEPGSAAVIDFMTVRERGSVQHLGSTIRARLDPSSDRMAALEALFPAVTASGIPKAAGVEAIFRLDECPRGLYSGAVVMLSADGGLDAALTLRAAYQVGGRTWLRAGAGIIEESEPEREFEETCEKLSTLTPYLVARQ
MenB inh: Mtb MenB enzyme inhibition; P9WNP5; AID 540299; MenB enzyme assay, absorbance read-out; some hits fall short of the stated cut; hit rate 0.43% among 100,000; inhibition, %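 (about 12 µg/mL by stock and volumes)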;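 active = mean of two replicates above 30%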;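 also: 0% = no compound and 100% = wells with inactive enzyme; the first replicate is given; strong numbers were not always called active; inactives centre near -10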
Polio RdRp inh intensity: also measured in Polio RdRp inh; calls as there; % elongation; measured here: total intensity read-out; formula for this scale not given here;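 total fluorescence in place of polarization; lower means less elongation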
* hit, by the source's call; nt = no result given; & = joins results of further samples.

SMILES	Polio RdRp inh	Polio RdRp inh intensity	Mtb MbtI inh	MenB inh
Cc1nc2c(C(=O)N3CCOCC3)c[nH]n2c(=O)c1Cc1ccc(F)cc1Cl	99	95	77	6
COc1ccc(NC(=S)N/N=C/c2ccc(N3CCOCC3)o2)cc1	115	140	-13	-89
CN(C)c1ccc(C2Nc3ccccc3NC3=C2C(=O)CCC3)cc1 (configuration not stated)	106	100	26	-30
CCOc1ccc2c(c1)C(C)=CC(C)(C)[N+]2(C)C	102	107	-12	nt
CCC(C)NC(=O)C(C)n1sc2ccccc2c1=O (configuration not stated)	103	107	5	15
Cn1c(N)c(C(=O)N/N=C/c2ccccc2)sc1=S	99	98	7	-30
COc1ccc(-c2nc(SCC(=O)N(C3CCCCC3)C3CCCCC3)n[nH]2)cc1	106	104	nt	-18
O=C(COc1ccc2c(c1)[nH]c1ccccc12)NC1CC1	101	113	4	-29
COC(=O)c1ccc(COC(=O)c2ccc(S(=O)(=O)C(F)F)cc2)o1	99	107	0	5
CCOC(=O)N1CCC(Nc2nc(-c3ccccc3)no2)CC1	102	101	0	2
O=C1NC(=O)C(C(c2ccccc2)c2ccccc2)C(=O)N1	99	103	1	32*
CC(C)C(Sc1nnc2sc3ccccc3n12)C(=O)NC(N)=O (configuration not stated)	103	101	-2	11
CSc1c(CC(=O)NN)n(C)c2ccccc12	99	99	nt	-19
CC1Cc2ccccc2CN1 (configuration not stated)	100	101	-1	17
Cc1ccc(S(=O)(=O)NCC2CCC(C(=O)O)CC2)cc1 (configuration not stated)	101	88	18	-27
COC(=O)c1sc(SC)c(-c2ccn(S(=O)(=O)c3ccc(Cl)cc3)n2)c1C	105	103	-9	-10
Cc1nc(COC(=O)Cc2coc3cc4c(cc23)CCC4)cs1	117	122	-3	-16
CC(=O)NCc1ccc(C(=O)COC(=O)c2oc3ccc(Br)cc3c2C)o1	99	107	11	-4
c1nc(NCCc2ccsc2)c2nc3n(c2n1)CCCCC3	102	105	-9	10
CCOC(=O)c1cccc(NCN2C(=O)c3ccccc3C2=O)c1	100	102	-9	-6
CCOC(=O)CSc1cn(Cc2ccc(Cl)cc2)c2ccccc12	102	106	0	-24
CC(C)(C)c1nnc2sc(SC/C(O)=C(\C#N)c3nc4ccccc4[nH]3)nn2c1=O	112	117	18	-47
CC(NCc1cccs1)C12CC3CC(CC(C3)C1)C2 (configuration not stated)	100	99	nt	6
Cc1cc2c(c(=O)n1CCCn1ccnc1)C(c1ccccc1)C(C#N)=C(N)O2 (configuration not stated)	100	109	-11	3
Cc1ccc(C(=O)Sc2nc(C)cc(C)n2)cc1	103	95	78*	-8
Cc1cc(C)c(C(=O)O)c(=O)[nH]1	106&103	104&103	12	-7&-6
COc1cc(/C=C/C(=O)OCC(=O)N2C(C)CCCC2C)ccc1O (configuration not stated)	97	91	19	-61
Cc1nn(C)c2nc(-c3cccs3)cc(C(F)(F)F)c12	104	108	-30	nt
O=Nc1[nH]c(O)c2cc(Br)ccc12	101	100	30	-78
Cc1cc(-c2c(C(=O)Sc3ccccc3)c(C)nn2-c2cccc(C(F)(F)F)c2)no1	104	105	-9	-56
Cc1nc(N)[nH]c(=O)c1Oc1ccccc1	96	95	nt	1
O=C1CCCN1CN1CCCCC1	103	105	-11	-6
Cn1ccnc1C(=O)c1ccc(Cl)c(S(=O)(=O)N2CCCCCC2)c1	105	110	4	-15
COC(=O)c1ccc(C=C(C#N)C#N)n1-c1ccc(F)cc1	104	105	-4	-19
COc1ccc(C)cc1NCC(=O)Nc1ccc2c(c1)OCO2	101	106	0	-42
O=C(O)c1ccc2c(c1)CCCC2	101	100	-1	-24
CCOc1cc(C(=O)OCC(=O)Nc2ccccc2Cl)ccc1OCC(=O)N1CCOCC1	103	108	41	-8
O=C(Cn1c(=O)c2cccn2c2ccccc21)NCCc1ccc(Cl)cc1	101	106	12	-11
CCN(CC)CCC(=O)c1ccc(OC(C)C)cc1	102	104	65*	-4
O=C(Nc1ccccc1)N1CCN2C(=O)c3ccccc3C12c1ccccc1 (configuration not stated)	99	103	-8	-16
O=C(N/N=C/c1ccc2c(c1)OCO2)C1CC1C(=O)N/N=C/c1ccc2c(c1)OCO2 (configuration not stated)	100	101	-8	-28
N=C1/C(=C\c2coc3ccccc3c2=O)C(=O)N=C2SC=NN12	71	195	-92	-76
CC(C)CNC(=O)CCn1cnc2onc(-c3ccc(F)cc3)c2c1=O	101	100	0	19
COc1ccccc1C(=O)NCCC(=O)Nc1cc(C(N)=O)cc(C(N)=O)c1	99	107	-2	-4
COc1ccc(-c2ccc(OC)cc2C(=O)NN)cc1	100	107	103	-10
CCN(CC)C(=O)c1sc(NC(=O)C(C)C)c(C#N)c1C	101	103	11	-4
N=c1c[n+](CCc2ccccc2)[n-]o1	100	102	-1	10
CSc1ncc(C(=O)O)c(C(F)(F)F)n1	98	94	nt	1
O/N=C/C=C/c1cn(Cc2ccccc2)nn1	102	101	-5	-14
CCn1ccc2c(OCC(=O)NC3CCCC3)cccc2c1=O	100	102	42	9
O=C1Nc2ccccc2C1(O)C/C(=N/O)c1ccco1 (configuration not stated)	102	100	-7	-10
COCCNC(=O)Cn1nnc(-c2ccc(OC)cc2)n1	101	101	-5	-20
CCOC(=O)C1=CS/C(=C2/C(=S)C(C)(C)N(C(=O)CC(C)C)c3ccc(OCC)cc32)S1	102	102	2	9
N#CCCn1cc(C(CC(=O)c2ccc3c(c2)CCCC3)C(=O)O)c2ccccc21 (configuration not stated)	102	99	9	-3
CCCN(CC1CC1)C(=O)CSc1nc2ccccc2n1C	101	103	5	2
S=c1nc2c(n[nH]1)c1ccccc1n2Cc1ccccc1	73*	64*	nt	-32
Cc1ccc(NC(=O)CNc2ccccc2)cc1Cl	101	101	2	-1
O=C(c1cn(CC(=O)N2CCOCC2)c2ccccc12)C1CC1	100	101	19	17
CNc1nc(SC)nc(N(C)C#N)n1	105	102	3	31
O=S1(=O)c2ccccc2Nc2ccccc21	104	103	-1	-12
Next part.
SMILES	Polio RdRp inh	Polio RdRp inh intensity	Mtb MbtI inh	MenB inh
O=C(O)C1OCCc2ccccc21 (configuration not stated)	101	103	-7	-32
NC(=O)c1sc2nccc(Nc3ccccc3)c2c1N	96	103	-375	-29
CC1=C(C#N)C(c2cccnc2)C2=C(CC(C)(C)CC2=O)N1 (configuration not stated)	98	104	73	-2
Cc1cc(=O)[nH]c(N/N=C/C2=C(N3CCOCC3)C(=C\c3ccc(Cl)cc3)/CC2)n1	119	131	4	-40
COc1ccc(-c2nnc3sc(NC(C)=O)nn23)cc1OC	100	100	-15	1
Cc1cc(C=Nc2ccc(Cl)cc2O)c(C)n1C	99	105	44	-37
Cc1c(CCNC(=O)c2cc(S(=O)(=O)N(C)C)c(Cl)cc2Cl)c2ccccc2n1C	89*	88*	nt	-11
CC[C@H](C)C(=O)O[C@H]1C[C@@H](C)C=C2C=C[C@H](C)[C@H](CC[C@@H]3C[C@@H](O)CC(=O)O3)[C@H]21	101&101&101	103&103&100	2&-4&-6	2&3
Cc1cc(C(=O)CO/N=C/c2ccco2)c(C)n1-c1ccc(OC(F)F)cc1	106	107	-10	-11
CC(=O)Nc1cccc(OC(=O)c2ccoc2C)c1	94	94	nt	7
Cc1ccc(S(=O)(=O)Nc2c(C)nn(C)c2C)cc1	104	103	-4	-31
CCCN(CC(=O)Nc1cc(C)on1)S(=O)(=O)c1cccc(C(F)(F)F)c1	105	110	-2	-19
CCOC(=O)c1sc(SC)c2c1CCCC21SCCS1	104	108	-10	-26
CS(=O)(=O)NC(c1ccccc1)c1ccccc1	107	115	nt	-14
COC(=O)c1ccc(COC(=O)c2ccc(OCc3c(C)noc3C)cc2)cc1	107	105	0	-5
COc1cc2c(cc1OC)-c1c(OC)c(OC)c(N)c3c1[C@H](C2)N(C)CC3	98	92	nt	-14
COc1cc2c(cc1OC)-c1c(C#N)c(-c3ccc4c(c3)OCO4)c(C(=O)c3ccccc3)n1CC2	101	103	3	16
CN(C(=O)COC(=O)c1cc(S(=O)(=O)N2CCOCC2)ccc1O)c1ccccc1	99	92	98	-14
COc1ccc(C2CC(=O)NC(SCC(=O)N3CCc4ccccc4C3)=C2C#N)cc1 (configuration not stated)	103	105	4	5
O=C(O)c1c(CNCCc2ccco2)c2ccccc2n1Cc1ccccc1	101	101	99	-2
N#CC1=C(N)/C(=C\c2ccc(Cl)c(Cl)c2)SC1=N	43	244	nt	-31
Cc1ccc(S(=O)(=O)n2c(=O)sc3ccccc32)cc1	99	104	-7	-14
Cc1nn(C(C)(C)C)c2c1C(c1ccsc1)C1=C(CCCC1=O)N2 (configuration not stated)	99	105	-49	nt
N#CCCN(Cc1cccnc1)S(=O)(=O)c1cccc(Cl)c1Cl	102	95	-4	-94
CCc1n[n+](CC(=O)c2ccccc2)c(N)s1	104	109	-12	nt
CC(=O)Nc1ccc(SCC(=O)c2cc(C)n(-c3nccs3)c2C)cc1	100	108	20	3
COc1ccc(/C=N/NC(=O)OC(C)(C)C)cc1OC	101	95	12	-5
O=C1CCC(=O)N1CCC(c1ccccc1)c1ccco1 (configuration not stated)	101	101	8	-4
Cc1ccc(NCC(=O)n2c3c(c4ccccc42)CCCC3)cc1Cl	99	104	-1	2
CCC(C)NC(=O)C(C)Sc1ccccc1 (configuration not stated)	98	102	-18	-29
CC(=O)Nc1ccc(OCCCNC(=O)C2=NNC(=O)CC2)cc1	100	102	19	4
CC1=C(C(=O)Nc2ccccc2)C(c2ccc(C)o2)NC(=S)N1 (configuration not stated)	101	103	33	-15
CCOC(=O)C(Cc1ccccc1)C(=O)Nc1cc(N(C)C)ccc1C (configuration not stated)	98	102	-13	-35
O=C(CN(Cc1ccc(Br)cc1)S(=O)(=O)c1ccccc1)Nc1ccccc1	100	96	-7	-46
CCOc1ccc(NC(=O)c2cccc3c2C(=O)N(CC2CCCO2)C3)cc1 (configuration not stated)	101	99	8	-22
CCCCCSc1nnc2c(n1)OC=Nc1ccccc1-2	99	101	-7	-9
CN(C)C(=O)C(Sc1ccc(S(=O)(=O)N2CCCC2)cn1)c1ccccc1 (configuration not stated)	104	110	15	-3
CCOC(=O)C1=C(C)NC(C)=C(C(=O)OCC)C1C(=O)OC	102	106	-5	-29
CC(=O)Nc1ccccc1OC(=O)N(C)C	107	108	2	-16
O=C(CSc1nnc(C2COc3ccccc3O2)n1-c1ccccc1)Nc1ccc2c(c1)OCCO2 (configuration not stated)	101	95	-6	-37

As a short view, part of the list above.
SMILES	Polio RdRp inh	Polio RdRp inh intensity	Mtb MbtI inh	MenB inh
O=C(CN(Cc1ccc(Br)cc1)S(=O)(=O)c1ccccc1)Nc1ccccc1	100	96	-7	-46
CCOc1ccc(NC(=O)c2cccc3c2C(=O)N(CC2CCCO2)C3)cc1 (configuration not stated)	101	99	8	-22
CCCCCSc1nnc2c(n1)OC=Nc1ccccc1-2	99	101	-7	-9
CN(C)C(=O)C(Sc1ccc(S(=O)(=O)N2CCCC2)cn1)c1ccccc1 (configuration not stated)	104	110	15	-3

By substructure, those above containing an aryl thioether with sulfur outside any ring.
SMILES	Polio RdRp inh	Polio RdRp inh intensity	Mtb MbtI inh	MenB inh
COc1ccc(-c2nc(SCC(=O)N(C3CCCCC3)C3CCCCC3)n[nH]2)cc1	106	104	nt	-18
CC(C)C(Sc1nnc2sc3ccccc3n12)C(=O)NC(N)=O (configuration not stated)	103	101	-2	11
CSc1c(CC(=O)NN)n(C)c2ccccc12	99	99	nt	-19
COC(=O)c1sc(SC)c(-c2ccn(S(=O)(=O)c3ccc(Cl)cc3)n2)c1C	105	103	-9	-10
CCOC(=O)CSc1cn(Cc2ccc(Cl)cc2)c2ccccc12	102	106	0	-24
CC(C)(C)c1nnc2sc(SC/C(O)=C(\C#N)c3nc4ccccc4[nH]3)nn2c1=O	112	117	18	-47
CSc1ncc(C(=O)O)c(C(F)(F)F)n1	98	94	nt	1
CCCN(CC1CC1)C(=O)CSc1nc2ccccc2n1C	101	103	5	2
CNc1nc(SC)nc(N(C)C#N)n1	105	102	3	31
CCOC(=O)c1sc(SC)c2c1CCCC21SCCS1	104	108	-10	-26
CC(=O)Nc1ccc(SCC(=O)c2cc(C)n(-c3nccs3)c2C)cc1	100	108	20	3
CCC(C)NC(=O)C(C)Sc1ccccc1 (configuration not stated)	98	102	-18	-29
CCCCCSc1nnc2c(n1)OC=Nc1ccccc1-2	99	101	-7	-9
CN(C)C(=O)C(Sc1ccc(S(=O)(=O)N2CCCC2)cn1)c1ccccc1 (configuration not stated)	104	110	15	-3
O=C(CSc1nnc(C2COc3ccccc3O2)n1-c1ccccc1)Nc1ccc2c(c1)OCCO2 (configuration not stated)	101	95	-6	-37
